Screening results from PubChem.
PD-1 reverse act: activators reversing PD-1 mediated T-cell inhibition; 29,000 tested, under 10 active; primary human CD4 T cells, PD-L1 beads, CellTiter-Glo 96 h; activation, % (test concentration not listed);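 active = replicate mean of 50% or more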;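 note: 0% = median vehicle wells and 100% = positive control; 100 nL library stock added to about 50 µL; numbers are from one replicate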
MITF inhib: inhibitors of MITF. TRPM1 promoter luciferase, luminescence, 24 h. inhibition, % (no concentration beside the values). 37,000 tested, 0.28% active;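 active = most replicates at 85% or more, or half of them and the mean; inconclusive = half reach 85% but not the mean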;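 note: human melanocyte line stably carrying TRPM1 promoter luciferase reporter; 0% = vehicle wells and 100% = a positive control; the first replicate is given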
YB-1 expression: YB-1 expression inhibition. U2OS, qRT-PCR YB-1 vs CDIP delta delta Cp, 16 h; stronger effect = higher value; zero = DMSO, each unit about twofold. delta delta Cp (YB-1 minus CDIP) (no concentration beside the values). 30,000 tested, 0.37% active. AID 434959;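 active = delta delta Cp rounded down to an integer at or above 3, about 3 SD of DMSO wells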;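 note: higher means less YB-1 transcript or more CDIP transcript relative to DMSO; stock transfer was 100 nL into about 100 µL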
Hedgehog inh: blocks Sonic Hedgehog signaling; inhibition, % (test concentration not listed); Shh-LIGHT2 Gli-luciferase reporter, 30 h; AID 2313; 22,000 tested, 2.1% active;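 active = replicate mean of 65% or more; inconclusive = mean lower but half the replicates past it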;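 note: pathway switched on by Shh-conditioned medium diluted 1 in 25 in low serum; 100 nL library stock added to about 40 µL; 0% = median of neutral wells and 100% = positive control level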
Active calls of the source: *; u = inconclusive; x = not tested or not shown.

SMILES	PD-1 reverse act	MITF inhib	YB-1 expression	Hedgehog inh
C[C@H]1CN([C@@H](C)CO)C(=O)c2cccc(NC(=O)C3CCCCC3)c2O[C@H]1CN(C)CC1CC1	2.5	-10.5	0.00381	-22.0
O=C(Cn1c(C(F)(F)F)nc2ccccc21)NCCN1CCCC1	1.3	-4.1	x	x
COc1ccc(S(=O)(=O)N(C)C[C@H]2Oc3c(NS(=O)(=O)c4ccccc4)cccc3C(=O)N([C@@H](C)CO)C[C@H]2C)cc1	2.4	-10.0	-0.0612	-9.6
C[C@H]1CN([C@@H](C)CO)C(=O)Cc2cc(NC(=O)Cc3cn(C)c4ccccc34)ccc2O[C@@H]1CN(C)Cc1ccccc1	0.0	20.7	-0.2	x
C[C@H](CO)N1C[C@H](C)[C@H](CN(C)Cc2ccc3c(c2)OCO3)Oc2c(NC(=O)C3CC3)cccc2C1=O	0.1	-8.7	0.00417	17.1
Cc1cc(=O)n2c3ccccc3n(CC(O)Cn3ccnc3)c2c1C#N (stereo not drawn)	-2.7	-8.4	x	x
COc1ccccc1NC(=O)COc1ccc(-c2nn(C)c(=O)c3ccccc23)cc1	-4.0	44.6	x	x
CC(=O)Nc1ccc(S(=O)(=O)Nc2ccc(NC(=O)c3ccco3)cc2)cc1	-0.2	-2.9	x	x
CC(C)NC(=O)N(C)C[C@@H]1Oc2ccc(NC(=O)Cc3cn(C)c4ccccc34)cc2C(=O)N([C@@H](C)CO)C[C@@H]1C	-0.3	2.8	0.552	x
C[C@@H]1CN([C@H](C)CO)C(=O)c2cccc(NC(=O)c3cnccn3)c2O[C@@H]1CN(C)S(=O)(=O)c1ccccc1	0.5	-6.4	0.026	34.1
C[C@@H]1CN([C@@H](C)CO)C(=O)c2cc(NC(=O)Cn3cnnn3)ccc2O[C@H]1CN(C)Cc1ccc(C(=O)Nc2ccccc2N)cc1	1.7	8.4	0.19	x
C[C@H]1CN([C@@H](C)CO)C(=O)c2cccc(NS(=O)(=O)c3ccc(Cl)cc3)c2O[C@H]1CN(C)CC1CC1	-0.1	-1.4	0.503	-4.8
COc1ccc(NC(=O)Nc2ccc3c(c2)C(=O)N([C@H](C)CO)C[C@H](C)[C@H](CN(C)S(=O)(=O)c2ccc(OC)cc2)OCCCC[C@@H](C)O3)cc1	1.6	6.5	0.639	44.7
CC(=O)Nc1ccc(S(=O)(=O)Nc2cccc(N(C)S(C)(=O)=O)c2)cc1	2.6	5.4	x	x
O=C(Cc1ccccc1)Nc1c(C(=O)N2CCCCC2)cnn1-c1ccccc1	1.6	12.6	-0.255	-16.7
Cc1c(NC(=S)NCCc2c[nH]c3ccccc23)c(=O)n(-c2ccccc2)n1C	0.7	-8.3	x	x
C[C@@H]1CC[C@H](O)/C=C/C(=O)O[C@H](C)CC[C@H](O)/C=C/C(=O)O1	-1.0	11.6	0.267	-3.3
Cc1noc(C)c1NC(=O)N(C)C[C@@H]1Oc2c(NS(=O)(=O)c3ccc(F)cc3)cccc2C(=O)N([C@H](C)CO)C[C@H]1C	1.7	-6.2	0.121	-0.9
O=C(CSc1nc2ccccc2[nH]1)Nc1ccc(Cl)c(Br)c1	-4.4	8.1	x	x
C[C@H](CO)N1C[C@H](C)[C@@H](CN(C)CC2CC2)Oc2c(NC(=O)Nc3cccc4ccccc34)cccc2C1=O	x	14.9	0.307	-6.3
Nc1nonc1-c1ccccc1	0.1	-3.1	-0.291	-9.0
C[C@H]1CN([C@@H](C)CO)C(=O)c2cc(NC(=O)Nc3ccc(F)cc3)ccc2O[C@H]1CN(C)C	1.3	-3.9	-0.0578	11.3
Cc1noc(C)c1S(=O)(=O)Nc1ccc2c(c1)C(=O)N([C@@H](C)CO)C[C@@H](C)[C@H](CN(C)Cc1ccc(Oc3ccccc3)cc1)O2	-0.5	4.0	-0.539	3.8
C[C@@H]1CCCCO[C@@H](CN(C)Cc2ccc(Cl)c(Cl)c2)[C@@H](C)CN([C@H](C)CO)C(=O)c2cc(NC(=O)Nc3cccc4ccccc34)ccc2O1	1.6	-6.1	-0.249	26.1
CC1=C(C(=O)Nn2cnc3cccc(F)c3c2=N)Sc2ccccc2N1	0.0	2.3	0.0825	8.3

(cont.)
SMILES	PD-1 reverse act	MITF inhib	YB-1 expression	Hedgehog inh
CCCN(C)C[C@H]1OCCCC[C@@H](C)Oc2ccc(NC(=O)Nc3ccc(F)cc3)cc2C(=O)N([C@H](C)CO)C[C@@H]1C	x	-11.9	0.306	-3.6
Cc1noc(C)c1NC(=O)N(C)C[C@H]1Oc2c(NC(=O)Nc3cccc4ccccc34)cccc2C(=O)N([C@H](C)CO)C[C@@H]1C	x	1.1	-0.117	13.7
C[C@@H]1CN([C@@H](C)CO)C(=O)Cc2cc(N(C)C)ccc2O[C@@H]1CN(C)Cc1ccc(C(=O)Nc2ccccc2N)cc1	-3.1	54.6	-0.307	x
C=C1C(=O)O[C@H]2C3=C(C)C[C@H](OC(C)=O)C[C@]3(C)CC[C@@H]12	-6.4	8.3	0.106	-2.4
COC(=O)c1sc(NC(=S)Nc2cccc(Cn3cc(Cl)cn3)c2)c(C(=O)OC)c1C	-3.5	-4.1	x	x
Cc1ccc(S(=O)(=O)N(C)C[C@@H]2Oc3c(NS(=O)(=O)c4ccc(Cl)cc4)cccc3C(=O)N([C@@H](C)CO)C[C@H]2C)cc1	x	-8.5	0.158	-67.1
Cc1noc(C)c1S(=O)(=O)Nc1ccc2c(c1)CC(=O)N([C@@H](C)CO)C[C@@H](C)[C@@H](CN(C)Cc1ccc(C(F)(F)F)cc1)O2	-0.8	0.3	-0.0153	-10.6
C[C@@H]1CCCCO[C@@H](CN(C)CC2CC2)[C@@H](C)CN([C@H](C)CO)C(=O)c2cc(NC(=O)CCCCCC(=O)Nc3ccccc3N)ccc2O1	-1.0	-16.1	0.0547	x
C[C@H](CO)N1C[C@H](C)[C@H](CN(C)Cc2ccc(C(=O)Nc3ccccc3N)cc2)Oc2c(NS(=O)(=O)c3ccccc3)cccc2C1=O	0.0	28.7	-0.0141	x
C[C@H]1O[C@@H](O[C@H]2CC[C@@]3(C)C(CC[C@]4(C)C3CC=C3C5CC(C)(C)CC[C@]5(C(=O)O)CC[C@]34C(=O)O)C2(C)C)[C@H](O)[C@@H](O)[C@@H]1O (stereo partly drawn)	x	x	0.0563	-24.8
CC(C)CC(=O)N1CCN(Cc2ccc(Cl)cc2)CC1	2.8	4.9	-0.114	x
C[C@@H]1CN([C@H](C)CO)C(=O)Cc2cc(NC(=O)Cn3cnnn3)ccc2O[C@@H]1CN(C)Cc1ccc(C(=O)O)cc1	2.2	-3.8	-0.186	25.6
Cc1cc(Br)ccc1NC(=O)Cn1cc([N+](=O)[O-])cn1	1.8	-13.7	x	x
COc1ccc(S(=O)(=O)N(C)C[C@@H]2Oc3c(NS(=O)(=O)c4ccccc4)cccc3C(=O)N([C@@H](C)CO)C[C@@H]2C)cc1	-3.9	9.1	0.232	-20.6
COc1ccc(NC(=O)Nc2ccc3c(c2)CC(=O)N([C@@H](C)CO)C[C@H](C)[C@@H](CN(C)S(=O)(=O)c2ccc(OC)cc2)O3)cc1	-1.0	0.1	-0.713	x
C[C@@H]1CN([C@H](C)CO)C(=O)c2cccc(NC(=O)C3CC3)c2O[C@H]1CN(C)CC1CC1	0.1	-0.6	0.345	11.3
CC(=O)NCCc1nc2cc([N+](=O)[O-])ccc2n1C	0.5	-15.6	x	x
C[C@@H]1CN([C@@H](C)CO)C(=O)c2cccc(NC(=O)Nc3ccc(C(F)(F)F)cc3)c2O[C@H]1CN(C)C(=O)Nc1ccc2c(c1)OCO2	x	34.2	-0.00604	-67.2
COc1ccc(NC(=O)N(C)C[C@H]2Oc3ccc(NC(=O)Cc4ccccc4)cc3CC(=O)N([C@H](C)CO)C[C@H]2C)cc1	0.6	0.2	1.14	-1.1
CCOC(=O)CC1=NN(c2ccccc2)C(=O)/C1=C\c1cc(OC)c(OC)cc1OC	0.0	1.2	0.284	x
Cc1ccc(S(=O)(=O)Nc2ccc3c(c2)CC(=O)N([C@H](C)CO)C[C@@H](C)[C@H](CN(C)S(C)(=O)=O)O3)cc1	0.7	-0.2	0.238	-14.1
CC(=O)N1Cc2ccccc2C(C)CC12CCCCC2 (stereo not drawn)	-0.2	14.3	-0.052	x
COc1ccc(S(=O)(=O)N(C)C[C@H]2Oc3c(NC(=O)Nc4ccc(C(F)(F)F)cc4)cccc3C(=O)N([C@H](C)CO)C[C@@H]2C)cc1	0.4	-26.1	0.0127	-18.5
COc1ccc(CN(C)C[C@H]2Oc3c(NC(=O)Nc4ccc(OC)cc4)cccc3C(=O)N([C@@H](C)CO)C[C@H]2C)cc1	-0.4	-15.0	-0.0775	1.7
COc1ccc(S(=O)(=O)Nc2ccc3c(c2)C(=O)N([C@H](C)CO)C[C@H](C)[C@@H](CN(C)C(=O)NC(C)C)OCCCC[C@@H](C)O3)cc1	1.4	3.7	-0.000542	-10.0

Quoted at random: 2 compounds from above.
SMILES	PD-1 reverse act	MITF inhib	YB-1 expression	Hedgehog inh
C[C@@H]1CN([C@@H](C)CO)C(=O)Cc2cc(N(C)C)ccc2O[C@@H]1CN(C)Cc1ccc(C(=O)Nc2ccccc2N)cc1	-3.1	54.6	-0.307	x
C[C@@H]1CN([C@H](C)CO)C(=O)c2cccc(NC(=O)C3CC3)c2O[C@H]1CN(C)CC1CC1	0.1	-0.6	0.345	11.3

New compounds follow:
SMILES	PD-1 reverse act	MITF inhib	YB-1 expression	Hedgehog inh
CCOC(=O)c1sc(NC(=O)CSc2ncccn2)c(C#N)c1C	-1.2	-2.2	x	x
CCc1cc(C(=O)OC)c(NC(=O)CC2NCCNC2=O)s1 (stereo not drawn)	0.4	-17.8	x	x
CC(C)NC(=O)N(C)C[C@@H]1Oc2ccc(NC(=O)CCCCCC(=O)Nc3ccccc3N)cc2CC(=O)N([C@H](C)CO)C[C@H]1C	-0.4	-10.2	0.0468	x
COc1ccc(NC(=O)Nc2ccc3c(c2)CC(=O)N([C@@H](C)CO)C[C@H](C)[C@H](CN(C)Cc2ccc(Cl)c(Cl)c2)O3)cc1	1.6	15.3	-0.386	u
Cc1cc(C(=O)Nc2cccc3c2O[C@@H](CN(C)C(=O)Nc2ccccc2)[C@H](C)CN([C@@H](C)CO)C3=O)n(C)n1	0.8	3.7	0.481	3.1
C[C@@H]1CCCCO[C@H](CN(C)C(=O)Nc2ccccc2)[C@@H](C)CN([C@H](C)CO)C(=O)c2cc(NC(=O)NC3CCCCC3)ccc2O1	x	1.1	-0.123	-21.7
COc1ccc(CN(C)C[C@@H]2Oc3ccc(NC(=O)Nc4ccc(F)cc4)cc3C(=O)N([C@@H](C)CO)C[C@H]2C)cc1	x	1.7	0.0109	27.8
COc1ccc(NC(=O)Nc2ccc3c(c2)C(=O)N([C@H](C)CO)C[C@H](C)[C@H](CN(C)S(=O)(=O)c2ccc(OC)cc2)O3)cc1	-1.9	-38.2	0.385	-31.7
CS/C(=C(/C#N)S(=O)(=O)C(C)C)N1CCCC1	-0.9	-9.2	-0.201	-1.4
Cc1noc(C)c1NC(=O)Nc1ccc2c(c1)C(=O)N([C@H](C)CO)C[C@H](C)[C@H](CN(C)C)OCCCC[C@@H](C)O2	x	5.2	0.282	-20.2
Cc1noc(C)c1NC(=O)N(C)C[C@H]1Oc2ccc(NC(=O)CCCCCC(=O)Nc3ccccc3N)cc2C(=O)N([C@H](C)CO)C[C@H]1C	0.5	1.2	0.288	x
Cc1ccc(-n2nnnc2SCC(=O)Nc2c(C)n(C)n(-c3ccccc3)c2=O)cc1	1.2	0.3	x	x
Cc1ccnc(NC(c2ccccn2)c2ccc3ccc(C)nc3c2O)c1 (stereo not drawn)	-14.4	75.0	x	x
Cc1ccc(NC(=O)c2cccc(NC(=O)CCC(=O)O)c2)cc1C	1.3	3.2	x	x
C[C@@H]1CN([C@@H](C)CO)C(=O)c2cc(NC(=O)CCC(F)(F)F)ccc2O[C@H]1CN(C)S(=O)(=O)c1ccc(F)cc1	0.9	-1.1	0.784	x
CNC[C@@H]1Oc2ccc(NS(=O)(=O)c3ccc(C)cc3)cc2CC(=O)N([C@H](C)CO)C[C@H]1C	x	-7.3	-0.0344	-7.8
C[C@@H]1CN([C@@H](C)CO)C(=O)c2cccc(NC(=O)Nc3ccc4c(c3)OCO4)c2O[C@@H]1CN(C)C(=O)Nc1ccccc1	2.7	-9.9	0.0576	-43.5
[O-][n+]1onc2c1CCc1c-2nc(-c2ccco2)n1O	0.4	2.3	0.316	4.4
C[C@H](CO)N1C[C@H](C)[C@H](CN(C)Cc2ccc(C(=O)O)cc2)Oc2ccc(NS(=O)(=O)c3cccs3)cc2CC1=O	1.7	1.1	0.42	0.0
C[C@H]1CN([C@@H](C)CO)C(=O)c2cccc(NC(=O)c3nc4ccccc4s3)c2O[C@H]1CN(C)Cc1ccncc1	-1.8	-10.9	-0.202	-44.1
COc1ccc2c(c1O)CN(C)CCc1cc3c(cc1C(=O)C2)OCO3	-0.4	-2.5	0.318	-8.6
O=C1C2CC3CC1CC(C(=O)O)(C3)C2	0.5	-15.1	0.106	-15.4

Complete entries, looked up by structure.
CS/C(=C(/C#N)S(=O)(=O)C(C)C)N1CCCC1 is listed with PD-1 reverse act = -0.9; MITF inhib = -9.2; YB-1 expression = -0.201; Hedgehog inh = -1.4
Cc1cc(C(=O)Nc2cccc3c2O[C@@H](CN(C)C(=O)Nc2ccccc2)[C@H](C)CN([C@@H](C)CO)C3=O)n(C)n1 is listed with PD-1 reverse act = 0.8; MITF inhib = 3.7; YB-1 expression = 0.481; Hedgehog inh = 3.1

These rows are one share of the data; rates above refer to the full screens.
